From PubChem BioAssay
Sfp PPTase inh: blocks B. subtilis Sfp PPTase activity; Q9F4F7; Biochemical Sfp PPTase activity, qHTS; Potency, µM, for the others: max response, negative = inhibition, usual class: inhibitors; 310,000 tested, 3.5% active; AID 1490; active = well fitted inhibition curve with a large enough effect; inconclusive = small, poorly fitted or top-dose-only effect, or another doubt; inactive = no such curve, though single readings can be large or run the other way;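 also: the enzyme is Sfp with the accession as filed and its product quenches rhodamine fluorescence; potency is read from the fitted curve at half-maximal effect; 0% = enzyme reaction without inhibitor and -100% = no enzyme wells; top concentration of the series not given in the record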
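Sfp 15 nM + cpd, 15 min RT; start w/ rhodamine-CoA 5 uM, BHQ-2-YbbR 12.5 uM (final); 50 mM Hepes pH 7.6, 10 mM MgCl2, 0.01% NP-40, 0.01% BSA; read 525/598 nm at 0 and 30 min.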
Menin MLL FP FL: inhibitors of human menin-MLL interaction, wild-type MLL peptide. 290,000 tested, under 10 active. FP activity change, % at 61.4 µM. Fluorescence polarization, fluorescein-MLL peptide displacement from menin; inconclusive = falling polarisation curve, or a change in total fluorescence; inactive = total fluorescence flat and polarisation flat or rising; no compound was filed as active; the % refers to the polarisation; negative = inhibition;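 also: % of control where 0% means no effect; inhibitors lower the polarisation; unlabelled MLL peptide was the positive control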
* hit, by the source's call; ? = inconclusive; & = joins results of further samples; [ ] = another dose, or the depositor's remark. A portion of the library; the hit share may differ from the screen's.

canonical_smiles | Sfp PPTase inh | Menin MLL FP FL
COc1ccc(NC(=O)N2CC[C@@]3(CCCN(C(C)=O)C3)C2)cc1 | ? | -1.6
CCCn1c(-c2ccc(F)cc2)nc2c(NC(C)CN(C)C)nc(C)nc21 (stereo not drawn) | 23% | 0.0
O=C(O)CCC/C=C\C/C=C\C=C\[C@@H](O)C/C=C\CCCCCO | 5% | 1.9
O=C1CC(c2ccccc2O)Oc2ccc(O)cc21 (stereo not drawn) | 3% | 19
Cc1noc(C)c1-c1ccc2ncnc(NCc3ccc(C(F)(F)F)cc3)c2c1 | 16% | 0.0
O=C(NCC1CC1)[C@H]1C[C@@H]1[C@H](NP(=O)(c1ccccc1)c1ccccc1)c1ccccc1 | 12% | -4.4
c1csc(CNc2cc(-c3ccoc3)ncn2)c1 | 32µM* | ?
COc1cccc(Nc2ncc3ncc(=O)n(CCC#N)c3n2)c1 | 12% | -1.0
CCCCCCCCCCCCCCCCCCCCCCCCCCCCCC | -18% | 3.7
C=C(C(C)=O)C(O)c1cccc(OC)c1 (stereo not drawn) | ? | -1.1
O=C1C[C@@H](c2ccc(O)c(O)c2)Oc2c1ccc(O[C@@H]1O[C@H](CO)[C@@H](O)[C@H](O)[C@H]1O)c2O | -25% | 3.7
C[C@H](NC[C@H](O)CP(=O)(O)CC1CCCCC1)c1ccc(Cl)c(Cl)c1 | -2%&-18% | 21
O=c1cnc2cnc(Nc3ccccc3)nc2n1C[C@H]1CCCO1 | 10% | 5.2
CN(C)c1ncnc2ccc(-c3ccc4c(c3)OCO4)cc12 | 11% | 11
OC[C@@H]1O[C@](CO)(O[C@H]2O[C@H](CO)[C@@H](O)[C@H](O)[C@H]2O)[C@H](O)[C@H]1O | 13% | -3.3

The list goes on; the last 2 above are carried over.
canonical_smiles | Sfp PPTase inh | Menin MLL FP FL
CN(C)c1ncnc2ccc(-c3ccc4c(c3)OCO4)cc12 | 11% | 11
OC[C@@H]1O[C@](CO)(O[C@H]2O[C@H](CO)[C@@H](O)[C@H](O)[C@H]2O)[C@H](O)[C@H]1O | 13% | -3.3
CC(C)=CC1C(CO)C1(C)C (stereo not drawn) | 11% | -0.9
O=C(c1cccc(F)c1)N1CCC2(CCCN(Cc3ccncc3)C2)CC1 | 23% | 0.0
C=C(C)C(=O)/C=C/CCC/C=C/C(=O)OCC | -4% | 5.2
COc1ccc(-c2ccc(-c3cc(=O)oc4cc(C)cc(C)c34)cc2)cc1 | -3% | -0.5[94.6 µM]
CC1(C)CCC[C@@]2(C)C1CC[C@@](C)(O)[C@@H]2CC[C@@](C)(O)C1CO1 (stereo partly drawn) | -7% | -0.7
Oc1ccc(OCc2ccccc2)cc1 | 17% | -1.5[24.8 µM]
O=C1[C@@H]2[C@H]3[C@H](O)[C@H](O)C/C(=N/OCc4ccccc4)[C@@H]3CC[C@H]2C(=O)N1c1ccc(F)cc1F | 11% | 0.1[11.7 µM]
CC#C[C@]1(O)CC[C@H]2C3CCC4=CC(=O)CCC4=C3[C@@H](c3ccc(N(C)C)cc3)C[C@@]21C (stereo partly drawn) | 3% | 1.7
Cn1c(=O)c(CCc2ccccc2)nc2cnc(N3CCNCC3)nc21 | 0% | 6.5
Cc1ncc2c(c1O)COP(=O)(O)OC2 | 7% | ?
COc1ccc(-c2nc3cnc(OC)nc3n(Cc3cccs3)c2=O)cc1 | -11% | -2.5
O=C(Nc1cccc(F)c1)N1CCC2(CC1)CCN(C(=O)c1cc(C(F)(F)F)cc(C(F)(F)F)c1)CC2 | 6% | 1.0
CC(C)c1ncc([N+](=O)[O-])n1C | 13% | -1.2
CCCCS(=O)(=O)N1C2=NC(C(=O)OC)=C(C(=O)OC)[C@@H]3Nc4ccccc4[C@]23C[C@H]1C(=O)OC | -4% | 7.4[11.7 µM]
CCc1ccc2c(O)c3c(cc2c1C(=O)OC)C(=O)c1c(O)ccc(O)c1C3=O | -27% | ?
C=CC[C@@H]1C=C[C@@H](O/N=C\c2ccc(C(=O)N3[C@H](c4ccc(C)cc4)[C@@H](C)CC[C@H]3C(=O)OC)cc2)[C@@H](CO)O1 | -6% | 3.1[11.7 µM]
O=c1n(Cc2cc3c(cc2Cl)OCO3)c(=O)n2n1CC[C@H]1/C(=N\OCc3ccccc3)[C@H]3O[C@@H]3[C@@H](O)[C@@H]12 | 18% | 4.5[11.7 µM]
COc1ccc(/C=C/NC(=O)Cc2ccc(OC)c(OC)c2)cc1 | 16%&3% | -5.0&-0.5[11.7 µM]
Cc1nc2cnc(N3CCN(C)CC3)nc2n(CCc2ccccc2)c1=O | 4% | -0.3
COc1ccc(C(=O)N2CCC[C@@]3(CCN(Cc4ccc(C#N)cc4)C3)C2)cc1 | 15% | 2.5
Cc1noc(C)c1-c1nccc(N(C)C)n1 | 20% | 0.8
NC(N)=NCC1COc2ccccc2O1 (stereo not drawn) | 13% | 1.8
CCC(=C(CC)c1ccc(O)cc1)c1ccc(O)cc1 | -1% | 1.2[24.8 µM]
CC(=O)N1CCC2(CC1)CCN(c1ccc(-c3ccccc3)cc1)CC2 | 56µM* | 5.2
Cc1cccc(CNc2cc(-c3cccc(C#N)c3)ncn2)c1 | -4% | -0.1
CCOc1ccccc1NC(=O)C1CCN(S(=O)(=O)c2cccc3cccnc23)CC1 | 6% | -3.0
O=C1OC2(c3ccc(O)cc3Oc3cc(O)ccc32)c2ccccc21 | -22%&10% | ?
COc1ccccc1CNc1ncncc1-c1ccccc1Cl | 0% | -4.5
COC(=O)[C@@]1(Cc2ccccc2)[C@H]2c3cc(C(=O)N(C)C)n(CCF)c3C[C@H]2CN1C(=O)c1ccccc1 | 28% | -1.6
CC(C)(C)c1ccc(OC2C=CC(C#Cc3ccccc3)OC2CO)cc1 (stereo not drawn) | 1% | 1.5[11.7 µM]

Single records (already shown). Order of values: Sfp PPTase inh | Menin MLL FP FL
CC(=O)N1CCC2(CC1)CCN(c1ccc(-c3ccccc3)cc1)CC2 as listed: 56µM* | 5.2
O=c1n(Cc2cc3c(cc2Cl)OCO3)c(=O)n2n1CC[C@H]1/C(=N\OCc3ccccc3)[C@H]3O[C@@H]3[C@@H](O)[C@@H]12 as listed: 18% | 4.5[11.7 µM]
Cc1cccc(CNc2cc(-c3cccc(C#N)c3)ncn2)c1 as listed: -4% | -0.1
CCOc1ccccc1NC(=O)C1CCN(S(=O)(=O)c2cccc3cccnc23)CC1 as listed: 6% | -3.0
COC(=O)[C@@]1(Cc2ccccc2)[C@H]2c3cc(C(=O)N(C)C)n(CCF)c3C[C@H]2CN1C(=O)c1ccccc1 as listed: 28% | -1.6

(list continues)
Below each compound – Sfp PPTase inh, Menin MLL FP FL
- OC(CN1CCC(Cc2ccc(F)cc2)CC1)c1ccc(Cl)cc1 (stereo not drawn)
  18%&18%, -3.2&-1.0
- CC(C)OC(C)C
  8%, -1.8
- CN1CCN(c2cc(-c3ccccc3C(F)(F)F)ncn2)CC1
  -2%, -6.5
- COc1ccccc1CCn1c(=O)c(-c2cccs2)nc2cncnc21
  3%, 10
- COc1ccc(OC2C(O)COC2/C=C/C#Cc2ccc(F)cc2F)cc1 (stereo not drawn)
  8%&29%, -5.1&1.3[11.7 µM]
- CCC(=O)[C@@]1(C)[C@H](C)C[C@@H]2[C@@H]3CCC4=CC(=O)C=C[C@@]4(C)[C@H]3[C@H](O)C[C@]21C
  24%, 1.6[24.8 µM]
- COc1ccc(C2/C=C\CC(NC(=O)OCC3c4ccccc4-c4ccccc43)CC(=O)N2Cc2cccc(F)c2)cc1 (stereo not drawn)
  8%, 0.9[44.5 µM]
- Cn1c(=O)[nH]c(=O)c2[nH]cnc21
  -20%, 1.2
- CCC[C@@H]1O[C@@H]2C[C@@H]3[C@H]4CCC5=CC(=O)C=C[C@@]5(C)[C@H]4[C@H](O)C[C@@]3(C)[C@@]2(C(=O)CO)O1
  26%, -3.8[24.8 µM]
- CSc1ncnc2c1ncn2C1OC(CO)C(O)C1O (stereo not drawn)
  18%, 0.7
- CSc1nc(N)c2ncn([C@H]3O[C@H](COP(=O)(O)OP(=O)(O)O)[C@@H](O)[C@@H]3O)c2n1
  -4%, -3.9
- CC(=O)/C=C\C1[C@]2(C)CCCC(C)(C)C2CC[C@@]1(C)O (stereo partly drawn)
  10%, 1.6
- C/C(CCN1CCCCc2nc(C)c(C)cc21)=N\OC[C@@H](O)[C@@H]1O[C@@H]2OC(C)(C)O[C@@H]2[C@H]1O
  16%, -3.9[11.7 µM]
- CC(C)=CCOc1cc2oc(=O)ccc2cc1O
  -2%, 4.8
- N#Cc1ccc(CN2CC3(CCN(C(=O)c4ccco4)CC3)C2)cc1
  17%, -0.8
- O=c1c(CCc2ccccc2)nc2cnc(N3CCNCC3)nc2n1Cc1ccc(F)cc1
  50µM*, ?
- COC1=CC(=O)C(C(=O)c2ccccc2)=CC1=O
  40µM*, ?
- FC(F)(F)c1cccc(-c2noc(-c3cc(-c4ccccc4)c(C(F)(F)F)s3)n2)c1
  0%&21%, 0.9&-3.0
- CCOC(=O)C1=C(C(=O)OCC)C(C(=O)OCC)N(S(=O)(=O)C(F)(F)F)c2ccccc21 (stereo not drawn)
  7%, -8.5
- Cn1cccc1C(=O)N1CCC2(CCCN(c3ccc(-c4ccccc4)cc3)C2)CC1
  -7%, ?
- CC(C)[C@@H](OCc1ccccc1)[C@H](C)/C=N\OC[C@@H](O)COCc1ccco1
  5%, 0.6[11.7 µM]
- FC(F)(F)c1ccccc1-c1cc(NCc2cccs2)ncn1
  -8%, -4.0
- CC(C)[C@H]1COC(c2cccc([N+](=O)[O-])c2)=N1
  7%, -0.6[138 µM]
- NC(=O)CC[C@H](N)C(=O)O
  14%, -2.4&-2.5
- CCCCC/C=C\C/C=C\C[C@H](O)/C=C/C=C\CCCC(=O)O
  9%, 1.1
- O=C(c1csnn1)N1CCC[C@@]2(CCN(c3ccncc3)C2)C1
  -3%, -9.9
- CN(C)C(=O)c1ccc(-c2ccc3ncnc(NC4CC4)c3c2)cc1
  16%, -3.2
- COc1ccc(-c2nc3cnc(N(C)C)nc3n(C3CC3)c2=O)cc1
  -5%, -1.7
- NC[C@@H]1O[C@H](c2ccccc2)Cc2c1ccc(O)c2O
  79µM*, -5.0
- COc1ccc2nc3c(cc2c1)Cc1ccccc1-3
  -6%, -0.9
- COc1ccc(-n2c(=O)c(-c3cc(F)cc(F)c3)nc3cnc(N4CCNCC4)nc32)cc1
  -15%, 3.4
- CC[C@@H]1Cn2c(c3nc(-c4ccccc4)nc-3n(C)c2=O)N1
  8%, -0.5
- C#CCCOC(=O)N1C2=NC(C(=O)OC)=C(C(=O)OC)[C@@H]3N(CC#CC)c4ccccc4[C@]23C[C@H]1C(=O)OC
  15%, -0.8[11.7 µM]
- C=C(C)C(=O)c1ccc2c(c1)OCO2
  -19%, 0.7
- CNc1nc(-c2ccccc2C)nc2ccccc12
  ?, -1.7
- C=C(C(C)=O)C(O)/C=C/c1ccco1 (stereo not drawn)
  -21%, ?
- O=C(Nc1cccc(F)c1)N1CCC2(CC1)CCN(C(=O)c1csnn1)CC2
  19%, 1.3
- CCCCC1=CC2=C(c3ccco3)C(=O)C(C)(OC(=O)c3ccc(OC)cc3)C(=O)C2=CN1CCc1c[nH]c2ccccc12 (stereo not drawn)
  7%, -5.8[11.7 µM]
- COC(=O)NC(CC(C)=O)c1ccc(F)cc1 (stereo not drawn)
  22%, -5.2[11.7 µM]
- O=C(OC[C@@H]1O[C@@](O)(COC(=O)c2cccnc2)[C@H](OC(=O)c2cccnc2)[C@H]1OC(=O)c1cccnc1)c1cccnc1
  6%, -1.8
- CC1=CC2C(C)(C)CC(=O)C[C@]2(C)CC1COc1ccc2c(c1)CC(=O)C=C2 (stereo partly drawn)
  -11%, 1.0
- CN(C)c1nc(-c2cccc(NS(C)(=O)=O)c2)nc2ccccc12
  -21%, 0.1
- COC(=O)C1=C(C)N(Cc2ccccc2)c2c(C(=O)OC)c(C(=O)OC)c(C(=O)OC)c(=O)n2C1c1ccccc1 (stereo not drawn)
  11%&26%, -5.1&-1.5[11.7 µM]
- COC/C=C/C1=CC2=CC(=O)C(C)(OC(=O)CCc3ccccc3)C(=O)C2=CO1 (stereo not drawn)
  5%, 0.3
- CC(=O)OC1CCC23CC1(C)CCC2C(C)(C)CC3OC(C)=O (stereo not drawn)
  4%, -0.9
- COc1ccc(C(=O)N2CCC3(CC2)CN(c2ccncc2)C3)cc1
  -5%, -1.6
- Cc1ccc(OCC(O)C(C)NC(C)C)c2c1CCC2 (stereo not drawn)
  14%, 0.3
- COC(=O)N1CCC2(CC1)CN(c1ccncc1)C2
  5%, -2.5
- O=C(c1cc(C(F)(F)F)cc(C(F)(F)F)c1)N1CCC[C@@]2(CCN(c3ccccn3)C2)C1
  16%, -9.7
- COC(=O)c1ccc2c(c1)c(I)c(-c1ccc(OC)cc1)n2C
  ?, -2.3
- O=C(OC1Cc2c(O)cc(O)cc2OC1c1cc(O)c(O)c(O)c1-c1c(C2Oc3cc(O)cc(O)c3CC2O)cc(O)c(O)c1O)c1cc(O)c(O)c(O)c1 (stereo not drawn)
  40µM*, 11
- CCC1(c2ccc(O)cc2)NC(=O)NC1=O (stereo not drawn)
  13%, 2.6
- Cc1cnc(CNc2cc(-c3ccc(N(C)C)cc3)ncn2)cn1
  2%, 5.9
- COc1ccc(-c2nc3c(c4c2C[C@H](c2ccccc2)OC4)CN(C(=O)Nc2cccc(C#N)c2)CC3)c(C)c1
  15%, 0.4[11.7 µM]
- CC(C)c1onc(-c2c(Cl)cccc2Cl)c1COc1ccc(/C=C/c2cccc(C(=O)O)c2)c(Cl)c1
  -28%, -6.9
